Cruzain inh Det = qHTS Assay for Promiscuous and Specific Inhibitors of Cruzain (with detergent); Cruzipain (Trypanosoma cruzi), P25779; purified cruzain, Z-FR-AMC fluorescence, 0.01% Triton; Potency, µM, without a hit: max response, negative = inhibition, most hits filed as inhibitors; actives 0.43% (n = 200,000); AID 1478, 2009;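 further: plate controls were neutral wells for no effect and buffer without enzyme for full effect; nearly all actives have a fitted effect of over 40% in size; top concentration of the series not given in the record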
Target sequence (P25779 123-467 limits assumed): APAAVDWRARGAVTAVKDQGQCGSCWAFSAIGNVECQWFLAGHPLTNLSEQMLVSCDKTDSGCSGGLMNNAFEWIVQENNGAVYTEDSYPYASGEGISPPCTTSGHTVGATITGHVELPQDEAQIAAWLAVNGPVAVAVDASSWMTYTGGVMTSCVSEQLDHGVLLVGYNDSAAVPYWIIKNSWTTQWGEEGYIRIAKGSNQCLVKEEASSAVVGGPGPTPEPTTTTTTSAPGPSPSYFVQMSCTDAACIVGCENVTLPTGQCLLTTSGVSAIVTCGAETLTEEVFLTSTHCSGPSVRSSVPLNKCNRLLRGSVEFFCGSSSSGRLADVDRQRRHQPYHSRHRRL
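Compounds were screened in titration against cruzain (1.5 nM) with 0.01% Triton X-100 to counter colloidal aggregation. Activity was the AMC fluorescence increase over 60 s after adding 2 uM Z-FR-AMC at pH 5.5.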
Cruzain inh noDet = qHTS Assay for Promiscuous and Specific Inhibitors of Cruzain (without detergent) | Cruzipain (Trypanosoma cruzi), P25779 | purified cruzain, Z-FR-AMC fluorescence, no detergent | Potency, µM, inactives show max response, negative = inhibition, usual class: inhibitors | actives 2.3% (n = 200,000) | AID 1476, 2009;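 further: plate controls were enzyme without inhibitor for no effect and buffer without enzyme for full effect; nearly all actives have a fitted effect of over 40% in size; top concentration of the series not given in the record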
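Purified cruzain at 1.5 nM, pre-incubated 15 min with compound at room temperature in 100 mM sodium acetate pH 5.5, 5 mM DTT, 0.00005% Triton X-100. Reaction started with 2 uM Z-FR-AMC; AMC fluorescence increase over 60 s gives rate.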
SARS PLpro yeast = qHTS of Yeast-based Assay for SARS-CoV PLP. S. cerevisiae expressing SARS-CoV PLpro, growth rescue; control for the full effect not named in the record. Potency, µM (doses to about 32.9 µM), for inactives: top-dose activity, positive = growth rescue. actives 0.19% (n = 330,000); active means well fitted rising curve with a large enough effect; inconclusive means small, poorly fitted or top-dose-only effect; inactive means no such curve, though single readings can be large or run the other way; further: 0% is about no effect; nearly all actives have a fitted effect of over 55% in size; growth read by luminescence after 48 h
Marburg entry inh = qHTS for inhibitors of binding or entry into cells for Marburg Virus | actives 1.8% (n = 300,000) | AID 540276, 2011 | Potency, µM (top dose mostly 37.8 µM), for the others: at the top dose activity change, negative = inhibition, most hits filed as inhibitors | Marburg virus pseudotyped entry inhibition, cell reporter; control for the full effect not named in the record; about a third of the inactives were read at about 46 µM; active = well fitted inhibition curve with a large enough effect; inconclusive = small, poorly fitted or top-dose-only effect, or effect the other way; inactive = flat fitted curve, though single readings scatter; tested in HEK293 cells; about a fifth of its hits are not listed in these tables; further: on the % scale 0 is the no-effect control and ±100 the full control effect; luciferase read-out
NS1 inh = qHTS Assay for Inhibitors of Influenza NS1 Protein Function; AID 2326, 2010; S. cerevisiae slowed by influenza A NS1, growth recovery by OD600; Potency, µM (top dose mostly 46.1 µM), without a hit: top-dose activity, positive = more growth; actives 0.4% (n = 270,000); active means well fitted rising curve with a large enough effect; inconclusive means small, poorly fitted or top-dose-only effect; inactive means no such curve, though single readings can be large or run the other way; further: nearly all actives have a fitted effect of over 50% in size
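S. cerevisiae expressing influenza A NS1, grown in glucose, washed, then diluted 1:100 into pH 6.0 -URA galactose medium with 23 nl compound. Growth recovery read as OD600; NS1-free strain serves as control.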
RE007 growth inh = qHTS Assay for Inhibitors of the HIV-1 protein Vpr | Potency, µM (titrated, usually from 92.2 µM), without a hit: top-dose activity change, negative = less growth | AID 651644, 2012 | S. pombe RE007 Vpr strain, BacTiter-Glo ATP luminescence, 24 h; control for the full effect not named in the record | actives 0.21% (n = 360,000); active = well fitted falling curve with a large enough effect; inconclusive = small, poorly fitted or top-dose-only effect; inactive = no such curve, though single readings can be large or run the other way;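 further: on the % scale 0 is the no-effect control and ±100 the full control effect; nearly all actives have a fitted effect of over 50% in size; the assay follows cell death caused by Vpr and the record does not say whether a fall means rescue or toxicity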
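Fission yeast RE007 carrying one integrated HIV-1 vpr copy, seeded at OD 0.01 in PMG+AL medium with 23 nL pinned compound. Grown 24 h at 30 degrees; viability read by BacTiter-Glo luminescence after 5 min.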
2A StopGo = High Throughput Screening for Foot and Mouth Disease Virus Antivirals. human cells with a luciferase reporter of 2A StopGo recoding; control for the full effect not named in the record. Potency, µM (titrated, usually from 57.9 µM), inactives show at the top dose signal change, negative = less light. actives 1.2% (n = 410,000). AID 1159524, 2015; active = well fitted falling curve with a large enough effect; inconclusive = small, poorly fitted or top-dose-only effect; inactive = no such curve, though single readings can be large or run the other way; tested in HEK293T cells; further: on the % scale 0 is the no-effect control and ±100 the full control effect; nearly all actives have a fitted effect of over 45% in size; luciferase light after 4 h
LASV entry inh = qHTS for Inhibitors of binding or entry into cells for Lassa Virus; Lassa virus pseudotype entry inhibition, cell reporter; control for the full effect not named in the record; Potency, µM (titrated, usually from 37.9 µM), for the others: at the highest dose activity change, negative = inhibition, actives largely listed as inhibitors; actives 1.2% (n = 300,000); AID 540256, 2011; active means well fitted inhibition curve with a large enough effect; inconclusive means small, poorly fitted or top-dose-only effect, or effect the other way; inactive means flat fitted curve, though single readings scatter; tested in HEK293 cells; further: on the % scale 0 is the no-effect control and ±100 the full control effect; nearly all actives have a fitted effect of over 50% in size; luciferase read-out
* = called active by the depositor; ? = inconclusive; / = no result given; & = joins results of further samples; [ ] = remark or other dose. Unless noted, the call rests on the fitted dose curve; in most records, active means well fitted curve in the direction sought with a large enough effect; inconclusive means small, poorly fitted or top-dose-only effect, or another doubt; inactive means no such curve, though single readings can be large; an effect the other way counts as inactive or inconclusive. Potency means the concentration at half of the fitted maximal effect.

| SMILES | Cruzain inh Det | Cruzain inh noDet | SARS PLpro yeast | Marburg entry inh | NS1 inh | RE007 growth inh | 2A StopGo | LASV entry inh |
| --- | --- | --- | --- | --- | --- | --- | --- | --- |
| CCCCN1C=CC(=C2N=c3cccc([N+](=O)[O-])c3=N2)C=C1 | -8.1% | -4% | 10% | ? | ? | -6% | -29% | ? |
| Cc1ccccc1Cn1cccc(C(=O)Nc2cc(Cl)ccc2C#N)c1=O | 0.6% | 3% | / | / | / | / | -9% | ? |
| CCOC(=O)c1sc(C)c2c1NC1(CCCCC1)NC2=O | 1.3% | -3% | -1% | -18% | -7% | 7% | -9% | 1% |
| Cn1nc(C(C)(C)C)c([N+](=O)[O-])c1C(=O)Nc1ccccc1 | 0.8% | -1% | -20% | 6% | -11% | 4% | 0% | ? |
| Cc1cc(C)c2c(C)c(C(=O)Nc3c(C)n(C)n(-c4ccccc4)c3=O)oc2c1 | -5.2% | -11% | -10% | ? | -10% | 1% | -14% | ? |
| Cc1ccc(-c2nc3ncccc3o2)cc1NC(=O)COc1ccc(C(C)C)cc1 | -4.3% | ? | / | ? | / | / | ? | -3%[46.1 µM] |
| Cc1noc(C)c1C(=O)NCCCc1ccccc1 | 3.5% | -1% | 1% | 14% | 0% | 17% | 5% | 8% |
| COC(=O)C[n+]1cccc2ccccc21 | / | / | -2% | -8%[46.1 µM] | / | -6% | -2% | 3% |
| CC1CCCN(C(=O)CN2C(=O)NC(C)(c3ccc4ccccc4c3)C2=O)C1 (configuration not stated) | / | / | 3% | -5%[46.1 µM] | / | -14% | -27% | 6%[46.1 µM] |
| CCOC(=O)C1=C(COc2ccccc2)NC(=O)NC1c1ccc(Cl)cc1 (configuration not stated) | / | / | -8% | / | 15% | 4% | -22% | / |
| CC(=O)Nc1c(O)nc(SCC(=O)N2CCN(c3ccc(F)cc3)CC2)[nH]c1=O | 0.9% | 0% | / | 7% | 2% | -3% | -22% | 0% |
| CCOc1ccc(N2C(=O)NC(=O)/C(=C\c3cc(OC)c(OC)cc3[N+](=O)[O-])C2=O)cc1 | -3.3% | 14% | 5% | -36%[46.1 µM] | ? | 1% | ? | -1% |
| CC(C)OC(=O)CSc1nc2cccnc2n1C1CCCCC1 | 2.6% | 2% | -3% | 0%[46.1 µM] | -2% | -16% | ? | -1% |
| CC(C)(C)NC(=O)NC(=O)COC(=O)CCCc1c[nH]c2ccccc12 | -9.4% | -26% | -21% | 13% | -20% | 3% | 3% | 9% |
| Cc1cc(-n2cnc3c(=O)[nH]cnc32)ccc1N | / | / | 1% | / | 4% | -3% | -7% | / |
| N#Cc1c(NC(=O)Cn2nc(C(F)(F)F)c3c2CCCC3)sc2c1CCC2 | 7.6% | 7.9µM* | -4% | ? | 3% | -24% | -7% | -21% |
| CC(c1nccs1)N(C)C(=O)c1cn(Cc2cccc3ccccc23)nn1 (configuration not stated) | / | / | 2% | / | -15% | 11% | 36%[activator] | / |
| CC(C)Cc1nnc(NC(=O)CCN2C(=O)c3ccccc3C2=O)s1 | -1.0% | ? | -3% | / | -2% | -7% | -10% | / |
| O=c1[nH]c(=O)n(-c2cccc3ccccc23)c(O)c1/C=N/N1CCCCC1 | / | / | 3% | ? | 13% | 5% | -7% | 6% |
| CCNS(=O)(=O)c1ccc(NC(=O)c2cc(C(F)(F)F)nn2C)cc1 | -5.5% | 3% | 6% | -13% | -2% | 9% | -19% | 11% |
| Cc1ccc(C)c(NC(=O)c2cnccn2)c1 | / | / | 4% | ? | 4% | -5% | 11% | 26% |
| CCCn1nnnc1NCc1cccn1C | 2.7% | -7% | 2% | 1% | 13% | -10% | 0% | 2% |
| NC(=O)NCc1ccc(Cl)cc1 | 6.3% | -5% | 6% | 17% | 1% | 4% | 16% | 28% |
| CCOC(=O)c1nnn(-c2nonc2N)c1-c1cccs1 | 4.6% | -2% | -8% | -14% | -12% | 4% | ? | 18% |
| CC1CC(C)CN(S(=O)(=O)c2ccc(NN)nc2)C1 (configuration not stated) | / | / | -1% | ? | 8% | -9% | 8% | -5% |
| Cc1ccc(CNC(=O)c2ccc3c(c2)CCN3S(=O)(=O)c2ccccc2)cc1 | -3.2% | 2% | / | 9%[46.1 µM] | / | / | 57%[activator] | ? |
| O=C1CC(c2ccccc2)C(=O)N1c1cccc(O)c1 (configuration not stated) | 0.9% | 2% | 0% | 0% | -2% | -11% | -5% | 13% |
| Cc1nc(NC(=O)CSc2nnc3ccccn23)c(Cl)cc1Cl | -2.8% | -5% | 1% | 0% | 1% | 0% | 35%[activator] | 15% |
| O=C(C1CCN(S(=O)(=O)c2ccc(Br)s2)CC1)N1CCN(C2CCCCC2)CC1 | / | / | 0% | ? | / | 2% | -20% | 8%[46.1 µM] |
| O=C1N/C(=N\c2ccccn2)SC1Cc1ccc(Cl)cc1 (configuration not stated) | / | / | -1% | -7% | 4% | -4% | -8% | -16% |
| CCC(C)(C(=O)NC1CCCCC1)N(C(=O)c1cnccn1)c1c(C)n(C)n(-c2ccccc2)c1=O (configuration not stated) | 1.6% | 10% | -1% | -4%&2% | 0% | 14% | -8% | 21% |
| COc1ccc(/C=N/NC(=O)c2ccc(COc3cccc4cccnc34)cc2)cc1OC | / | / | -1% | 22% | 0% | 67% | -18% | 5% |
| O=C(CN1CCOCC1)NCc1ccc(F)cc1 | / | / | 2% | / | 3% | 3% | -5% | / |
| CC(C)Cn1c(N)c(C(=O)COC(=O)c2ccc3ccccc3n2)c(=O)n(C)c1=O | -3.8% | ? | -2% | -16%&-16% | 10µM* | 4% | ? | 15% |
| O=C(CSc1ccc(-c2ccccc2)nn1)NCC1CCCO1 (configuration not stated) | / | / | 1% | ? | / | -8% | 2% | ? |
| COc1cccc(C(=O)N2CCN(C(=O)C3CC3)CC2)c1 | / | / | 9% | 0%[46.1 µM] | 7% | -8% | -1% | ? |
| Cc1ccc2cc(C3CC(c4ccco4)=NN3C(=O)CCC(=O)O)c(Cl)nc2c1 (configuration not stated) | -8.5% | 6% | 28% | 1% | 13% | -12% | 7% | 2% |
| Cc1cccc(NC(=O)Nc2cccs2)c1C | -7.6% | -10% | / | 0%[46.1 µM] | / | / | 30%[activator] | / |
| Cc1ccccc1NC(=O)CCN1CCN(C)CC1 | / | / | 3% | / | -3% | 1% | -1% | / |
| O=c1c2ccccc2nc(N2CCCC2)n1-c1ccc(Cl)cc1 | -7.1% | -9% | -2% | 11% | -49% | 10% | -26% | 1% |

One compound at a time, as listed above:
CC(C)Cn1c(N)c(C(=O)COC(=O)c2ccc3ccccc3n2)c(=O)n(C)c1=O is entered as Cruzain inh Det = -3.8%; Cruzain inh noDet = ?; SARS PLpro yeast = -2%; Marburg entry inh = -16%&-16%; NS1 inh = 10µM*; RE007 growth inh = 4%; 2A StopGo = ?; LASV entry inh = 15%
CCC(C)(C(=O)NC1CCCCC1)N(C(=O)c1cnccn1)c1c(C)n(C)n(-c2ccccc2)c1=O (configuration not stated) is entered as Cruzain inh Det = 1.6%; Cruzain inh noDet = 10%; SARS PLpro yeast = -1%; Marburg entry inh = -4%&2%; NS1 inh = 0%; RE007 growth inh = 14%; 2A StopGo = -8%; LASV entry inh = 21%

More records.
| SMILES | Cruzain inh Det | Cruzain inh noDet | SARS PLpro yeast | Marburg entry inh | NS1 inh | RE007 growth inh | 2A StopGo | LASV entry inh |
| --- | --- | --- | --- | --- | --- | --- | --- | --- |
| CCN1CCN(C(=O)COc2ccc(S(=O)(=O)NC(C)C)cc2)CC1 | -0.3% | -9% | -17% | 11% | 4% | 2% | / | ? |
| COC(=O)C(CSCc1ccccc1)NC(=O)CSc1nc(N)cc(=O)[nH]1 (configuration not stated) | / | / | 6% | 9%[46.1 µM] | / | 9% | 5% | 3%[46.1 µM] |
| CN1C(C)(C)c2ccccc2OS1(=O)=O | / | / | 4% | / | 5% | -5% | -8% | / |
| O=C(NCc1nnc2c3ccccc3c(-c3ccccc3)nn12)c1ccc(Cl)cc1 | -9.9% | 11% | -12% | ? | 30% | 0% | ? | ? |
| CCOc1ccc(NC(=O)/C(C#N)=C\c2ccc(-c3ccc(Cl)cc3)o2)cc1 | -1.5% | -4% | / | / | / | / | 28% | -7%[46.1 µM] |
| O=C(CSc1nc(-c2ccco2)cc(C(F)(F)F)n1)N1CCN(c2cccc(Cl)c2)CC1 | -14% | 3% | -11% | ? | 12% | 17% | 0% | ? |
| Cc1ccc(C)c(N2CCN(C(=O)CCc3c(C)nn(-c4ccc(N5CCCC5)nn4)c3C)CC2)c1 | -3.7% | 25% | / | / | / | / | ? | ? |
| CS(=O)(=O)N1CCCc2cc(C(=O)Nc3cccc(C(F)(F)F)c3)ccc21 | -8.2% | ? | / | -27%[46.1 µM] | / | / | 25µM* | ? |
| CCCCCCn1c(SCCC)nc2c1c(=O)[nH]c(=O)n2C | 6.0% | ? | 11% | 0% | 3% | 12% | -27% | ? |
| N=c1c(C(=O)NCC2CCCO2)cc2c(=O)n3ccccc3nc2n1Cc1cccnc1 (configuration not stated) | 28µM* | ? | 0% | -16% | 4% | 1% | 6% | -4% |
| CCOc1ccc(C(=O)Nc2ccccc2N2CCOCC2)cc1 | -2.8% | -7% | -3% | 3%[46.1 µM] | -22% | -14% | -19% | -11% |
| COc1ccc(CCNC(=O)Cn2nc(C)c3c(C)n(-c4ccc(C)cc4)nc3c2=O)c(OC)c1 | -3.9% | -2% | -8% | / | / | / | ? | ? |
| CCn1cc(CNCc2cn(-c3ccccc3C)nc2-c2ccc(OC)c(F)c2)cn1 | / | / | 0% | ? | 1% | 7% | -4% | 14% |
| CC(C)(C)NC(=O)CSc1nncn1NCc1c(Cl)cccc1Cl | -2.4% | 10% | 19% | -11% | 6% | 0% | -20% | -1% |

Bioassay records as filed in PubChem BioAssay.
